# Bioassay records from PubChem BioAssay.
# MLL AF4-AF9 inh: MLL-AF4/AF9 protein interaction inhibition; AID 651704; 350,000 compounds, 0.47% hits; AlphaScreen, biotin-AF4 peptide binding to FLAG-AF9; P42568; inhibition, % at 10 µM;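 active means every replicate reaching a set inhibition limit, whatever the replicate mean, cut at about 25% in these data; inconclusive means mean inhibition reaches that limit but some replicates miss it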;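 further: 0% = plate neutral control median and 100% = total signal loss; the record names both 10 and 1 µM as test concentration; the first replicate is given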
# Target sequence (P42568 whole entry, looked up): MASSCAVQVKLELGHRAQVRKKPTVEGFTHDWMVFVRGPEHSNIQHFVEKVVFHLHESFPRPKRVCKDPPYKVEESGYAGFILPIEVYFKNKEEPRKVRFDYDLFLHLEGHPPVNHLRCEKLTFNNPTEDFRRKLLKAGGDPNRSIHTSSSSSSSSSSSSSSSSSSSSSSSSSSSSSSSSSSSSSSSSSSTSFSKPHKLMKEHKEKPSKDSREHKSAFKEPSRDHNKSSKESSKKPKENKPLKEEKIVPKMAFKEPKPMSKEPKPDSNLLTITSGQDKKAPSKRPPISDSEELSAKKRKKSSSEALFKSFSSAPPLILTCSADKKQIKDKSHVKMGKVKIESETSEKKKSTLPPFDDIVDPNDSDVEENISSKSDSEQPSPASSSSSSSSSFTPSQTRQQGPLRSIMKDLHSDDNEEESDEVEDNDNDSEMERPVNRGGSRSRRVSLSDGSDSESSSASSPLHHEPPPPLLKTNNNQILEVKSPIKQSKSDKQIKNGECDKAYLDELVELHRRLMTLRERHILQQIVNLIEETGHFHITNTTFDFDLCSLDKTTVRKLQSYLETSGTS
# Bfl-1 A1 inh: inhibitors of the anti-apoptotic protein A1, read as caspase activation. MEF A1-2A-BIM cells, Caspase-Glo 3/7 luminescence, 3 h; percent of clofoctol response, vehicle zero. caspase activation, % (test concentration not listed). 330,000 compounds, 0.066% hits;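 active means over half of replicate activation scores above 10%, or exactly half above 10 with the replicate mean above 10; inconclusive means replicate mean below 10 yet half the replicates above 10; inactive means over half of replicates below 10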;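 further: wells of about 30 µL received 50 nL stock; many hits fall short of the cut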
# LANA-H2A inh: blocks KSHV LANA binding to histone H2A/H2B; Q9QR71; cell-free LANA-H2A/H2B peptide, fluorescence polarization; inhibition, % (concentration not given with the values); 320,000 compounds, 0.6% hits; in the data active means inhibition mostly above about 10%, no sharp cut-off; inactive means mostly below about 6.7%;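 further: stock transfer was 7.5 nL into about 10 µL; 0% = median of vehicle wells and 100% = median of positive control wells; one replicate is shown; the record names a cut of 25% in any replicate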
# T cruzi repl: blocks replication of Trypanosoma cruzi. inhibition, % (test concentration not listed). T. cruzi beta-gal in NIH3T3, luminescence, 90 h. 300,000 compounds, 1.4% hits. AID 1885;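 active means mean inhibition across valid replicates above about 55%, limit read from the data; inconclusive means mean below that limit but half or more replicates reach it; inactive means mean below it, under half of replicates reach it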;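 further: signal also drops with host cell toxicity which is not excluded here; 0% = plate median of DMSO wells and 100% = zero luminescence signal; higher percent means less beta-gal luminescence so fewer parasites; stock transfer was 50 nL into about 50 µL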
# Beta cell apopt: beta cell apoptosis inhibition; AID 435005; 300,000 compounds, 0.8% hits; protection from apoptosis, % (concentration not given with the values); INS-1E cytokine-induced death, ATP luminescence, 48 h; percent of positive-control rescue, neutral wells zero;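 active means all replicates at 75% or more, or half of them and the mean; inconclusive means half reach 75% but not the mean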;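 further: 0% = cytokine-treated negative control wells and 100% = positive control rescue; higher means more ATP so stronger rescue from cytokine killing; wells of about 40 µL received 100 nL stock; the first replicate is given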
# Vif TR-FRET: inhibitors of Vif binding to APOBEC3G peptide, primary screen, biochemical, TR-FRET, GST-Vif 1-94, biotin-A3G peptide, dose response retest (AID 1117319); inhibition, %, or IC50 in µM where a hit was titrated; 260,000 compounds, 0.57% hits; TR-FRET GST-Vif / biotin-A3G peptide binding; higher % means a stronger effect; test concentration not given here; strong numbers were not always called active;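 active means above the screen mean plus three standard deviations and confirmed in dose response; inconclusive means results disagree or hit not tested in dose response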;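 further: Vif residues 1-94 fused to GST binding biotinylated APOBEC3G peptide 110-148; 0% = full assay without inhibitor and 100% = GST in place of GST-Vif; retest series ran down from 100 µM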
# RanGTP-Impb inh: disruptors of Ran-importin-beta complex formation – biochemical, FRET, CFP-Ran, YFP-importin-beta, homogeneous, primary screen; cell-free CFP-Ran/YFP-importin-beta FRET ratio; inhibition, % (concentration not given with the values); 300,000 compounds, 1.1% hits; AID 2216;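 active means most replicates above 15%; inconclusive means exactly half above 15%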;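 further: 0% = DMSO wells and 100% = Ran loaded with GDP instead of GTP; wells of about 40 µL received 100 nL stock; the first replicate is given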
# Calb FLC: affects C. albicans growth with fluconazole; AID 1979; 300,000 compounds, 0.57% hits; C. albicans CaCi-2 (fluconazole-resistant clinical isolate) + fluconazole, Alamar Blue growth, 48 h; growth inhibition, % (no concentration beside the values);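 active means most replicates above 75%; inconclusive means exactly half above 75%; inactive means most below 75%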;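 further: all wells also contain fluconazole at 8 µg/ml as a sub-toxic cotreatment; 0% = median of DMSO wells and 100% = median of geldanamycin control wells; wells of about 8 µL received 7.5 nL stock; the first replicate is given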
# * marks the source's active call; other numbers are inactive results; ? = inconclusive; . = no result given; & = joins results of further samples. Rows were taken by chance. Share with any hit: about 4.3%.
molecule	MLL AF4-AF9 inh	Bfl-1 A1 inh	LANA-H2A inh	T cruzi repl	Beta cell apopt	Vif TR-FRET	RanGTP-Impb inh	Calb FLC
S=C(Nc1ccccc1)N1N=C(c2cccs2)CC1c1cccs1 (stereo not given)	15	?	8.2	25	4	7%	-1.6	-37
CC1=CC(c2ccc(Cl)cc2)n2nc(NC(=O)CCC(=O)O)nc2N1 (stereo not given)	-1.0	-0.1	-5.3	14	-7	24%	1.4	6
O=C(O)c1ccc2c3c(ncnc13)-c1ccccc1C2=O	.	1.5	6.4	-10	27	?	-1.7	-16
CCOC(=O)C1(Cc2cccc(OC)c2)CCN(Cc2csc(C(C)=O)c2)CC1	2.7	0.1	9.2	23	-4	?	33*	-26
Cc1nc(-c2ccccn2)nc(N(C)c2ccccc2)c1Cl	?	1.2	-11	59*	.	.	2.8	-14
Brc1cccc(CNCC2CCCO2)c1 (stereo not given)	-3.1	1.2	-3.9	-2	-7	.	4.2	-1
CN1CCC(NC(=S)Nc2cccc([N+](=O)[O-])c2)CC1	1.0	1.2	0.8	16	-3	27%	8.9	-4
O=C(Nc1cccnc1)c1cc(Cl)ccc1Cl	0.9	1.2	-0.8	12	1	.	-1.3	8
CN(C(=O)CN1C(=O)c2cc(Cl)c(Cl)cc2C1=O)C1CCS(=O)(=O)C1 (stereo not given)	-0.8	0.2	0.6	2	2	-3%	-0.2	-12
COc1ccc(NC(=O)C2CCCN(S(=O)(=O)c3c(C)n[nH]c3C)C2)cc1 (stereo not given)	.	0.9	3.9	-13	2	-6%	4.0	-33
CCOC(=O)c1c(NC(=O)C(C)N2CCN(S(=O)(=O)c3cccs3)CC2)sc2c1CCC(C)C2 (stereo not given)	.	-0.8	-1.5	-1	0	-11%	-1.1	-18
O=C(NC1CCCCC1)c1ccc(-c2ccccc2[N+](=O)[O-])o1	6.2	0.0	-0.9	-6	3	16%	-2.8	5
Nc1c(C(=O)c2ccccc2O)cnn1-c1ccc(S(=O)(=O)N2CCOCC2)cc1[N+](=O)[O-]	-0.3	0.5	5.2	13	-1	.	-11	7
Cc1cccc(NC(=O)c2ccccc2Br)n1	-1.1	-1.1	-2.0	5	-4	-1%	-3.0	3
O=C(CCCOc1ccc(Cl)cc1Cl)N/N=C/c1cccc([N+](=O)[O-])c1	-0.4	0.7	-5.9	-10	-3	-7%	0.0	4
COc1cc2c(cc1OC)CN(CC(=O)Nc1ccc3c(c1)OCO3)CC2	.	0.4	2.9	13	-3	0%	2.1	-1
Cc1ccc(CNC(=O)CN2C(=O)NC(C)(c3ccc(Cl)cc3)C2=O)cc1 (stereo not given)	-2.6	2.5	1.8	1	2	1%	0.9	9
CN(c1ccc(C(=O)NCc2ccc3c(c2)OCO3)cc1)S(=O)(=O)c1ccccc1	-2.9	-0.8	-6.2	13	-11	-17%	-3.6	3
OCCN(Cc1ccccc1)CC1CC2C=CC1C2 (stereo not given)	.	1.5	0.2	-5	-5	-1%	-3.2	-20
O=S(=O)(Cc1ccccc1Cl)Nc1ccccn1	.	0.7	1.9	-15	.	10%	-1.5	-20
Cc1ccc2c(C(=O)CN3CCOCC3)c(C)[nH]c2c1	.	1.6	2.7	-10	-3	13%	6.8	7
COc1ccc(CNC(=O)COC(=O)CCS(=O)(=O)c2ccc(C)cc2)cc1OC	-1.9	0.5	-4.9	0	-4	-4%	2.3	-8
CCN(CC(=O)NCc1ccc(Cl)cc1)C(=O)/C=C/c1ccc(Cl)c([N+](=O)[O-])c1	-7.8	0.2	-2.1	-1	-3	.	2.4	2
CC(=O)Nc1ccc(NC(=O)C2CC(=O)N(Cc3ccccc3)C2)cc1 (stereo not given)	-1.0	1.0	2.1	3	1	-7%	-2.2	4
Cc1cc(Br)ccc1NC(=O)CCN1C(=O)c2ccncc2C1=O	.	0.5	-2.6	6	-1	-1%	?	-3
Nc1ccc(N2CCN(c3ccccc3)CC2)c(F)c1	5.1	0.0	3.3	-4	6	0%	-0.8	1
CCOC(=O)C1=C(c2ccccc2)NC(=S)NC1c1cccc([N+](=O)[O-])c1 (stereo not given)	-4.9	1.7	-2.1	-20	3	.	4.0	1
CCOc1c(Br)cc(C(=O)OCC(=O)N2CCc3ccccc3C2)cc1OC	0.9	-1.0	.	.	4	-8%	.	.
Cc1nnc(SCC(=O)N2CCOCC2)n1C	.	0.2	1.6	-64	-3	6%	5.2	-7
COc1ccc(Cc2nc(C(=O)Nc3ccc(OC)cc3)cs2)cc1	.	0.0	2.5	2	-5	3%	-0.2	7

# Part of the list above, as labelled records:
CC1=CC(c2ccc(Cl)cc2)n2nc(NC(=O)CCC(=O)O)nc2N1 (stereo not given)
  MLL AF4-AF9 inh = -1.0
  Bfl-1 A1 inh = -0.1
  LANA-H2A inh = -5.3
  T cruzi repl = 14
  Beta cell apopt = -7
  Vif TR-FRET = 24%
  RanGTP-Impb inh = 1.4
  Calb FLC = 6

Nc1c(C(=O)c2ccccc2O)cnn1-c1ccc(S(=O)(=O)N2CCOCC2)cc1[N+](=O)[O-]
  MLL AF4-AF9 inh = -0.3
  Bfl-1 A1 inh = 0.5
  LANA-H2A inh = 5.2
  T cruzi repl = 13
  Beta cell apopt = -1
  Vif TR-FRET = .
  RanGTP-Impb inh = -11
  Calb FLC = 7

# Some of these compounds in order of their number in LANA-H2A inh, lowest first.
canonical_smiles,LANA-H2A inh
CCOC(=O)C1=C(c2ccccc2)NC(=S)NC1c1cccc([N+](=O)[O-])c1 (stereo not given),-2.1
CN1CCC(NC(=S)Nc2cccc([N+](=O)[O-])c2)CC1,0.8
COc1cc2c(cc1OC)CN(CC(=O)Nc1ccc3c(c1)OCO3)CC2,2.9

# Next compounds:
molecule	MLL AF4-AF9 inh	Bfl-1 A1 inh	LANA-H2A inh	T cruzi repl	Beta cell apopt	Vif TR-FRET	RanGTP-Impb inh	Calb FLC
N/C(=N\OC(=O)CCN1C(=O)c2ccccc2C1=O)c1ccccn1	-3.1	0.2	-6.7	-18	2	.	1.6	6
COc1ccc(CCNC(=O)CC(C)S(=O)(=O)c2ccc3c(c2)NC(=O)CO3)cc1OC (stereo not given)	-3.0	-0.1	-6.0	-21	-4	.	0.2	-12
CCC(CC)NC(=O)c1cccc(Oc2ccccc2)c1	-2.0	-0.5	-2.7	7	2	-3%	0.3	-25
CCc1cccc2c(C(=O)COC(=O)/C=C/c3ccccc3OC)c[nH]c12	-1.5	1.4	1.6	16	-5	.	2.6	-10
CC(Sc1nc(N)cc(=O)[nH]1)C(=O)NC1CCCCC1 (stereo not given)	.	0.6	4.8	.	-1	0%	.	.
COc1cccc(OCC(=O)NNC(=O)c2ccc3ccccc3c2O)c1	-3.2	.	.	1	.	11%	4.4	-5
C=C1N(c2ccc(Cl)cc2)C(=O)OC1(C)C	.	2.3	4.5	3	3	27%	0.1	?
COC(C[C@@H](O)C[C@@H](O)[C@@H](C)OCc1ccccc1)OC	-6.3	1.0	-2.4	6	-4	.	1.3	-17
C#CC[N+](C)(C)CCCCCCCCCCCC	-5.9	-0.2	-3.9	50	101*	-4%	3.7	79*
Nc1cc(Oc2ccc(Cl)cc2Cl)nc(N)n1	-2.3	0.1	1.0	0	-1	-1%	1.7	5
Cc1ccc(CNC(=O)CN2C(=O)NC3(CCCC3)C2=O)cc1	-2.3	0.1	3.2	.	-4	9%	.	.
Cc1cccc(C)c1NC(=O)CC(C)c1ccccc1 (stereo not given)	-0.8	0.9	0.7	10	.	.	?	2
O=c1c2ccccc2c(-c2n[nH]c(=S)o2)nn1Cc1ccccc1	-1.5	-1.3	3.0	11	1	10%	-0.4	2
CCCCCn1c(SCC(=O)OCC)nc2cc(C(=O)N3CCC(C(N)=O)CC3)ccc2c1=O	.	0.3	-1.7	1	-10	?	1.7	38
O=C(NCCC1=CCCCC1)NC1CCCCC1	.	1.5	-0.2	-7	-5	17%	5.5	-23
COc1ccccc1CCNC(=O)C(=O)NCCC1CCCCN1S(=O)(=O)c1ccccc1 (stereo not given)	-3.7	0.9	4.4	6	3	4%	37*	14
Cc1ccc(S(=O)(=O)NC(=O)c2cc(C)n(-c3cc(S(=O)(=O)N4CCOCC4)ccc3N3CCCC3)c2C)cc1	-1.9	0.9	-0.5	14	-1	9%	5.2	4
O=C(CCc1ccccc1)Nc1ccc(NC(=O)c2ccco2)nc1	.	-1.8	-1.1	12	-3	-3%	?	4
O=[N+]([O-])c1cccc2ccc(N3CCOCC3)nc12	7.9	1.9	-5.1	4	-8	.	5.5	6
CCN(CC)S(=O)(=O)c1ccc2c(c1)nc(SC(C)C(N)=O)n2-c1ccc(OC)cc1 (stereo not given)	.	-0.7	-6.2	15	7	0%&-2%	1.5	-3
Cc1cc(C)cc(C(=O)NCC(=O)OCC(=O)N2CCN(S(=O)(=O)c3ccc4ccccc4c3)CC2)c1	3.0	0.0	-6.8	-5	1	-10%	-2.5	-4
N#Cc1c(N2CCOCC2)nc(N)c2c(N)nc3c(c12)CC(CCl)O3 (stereo not given)	6.2	0.2	0.5	5	-4	?	1.9	-1
Cn1c(CNS(=O)(=O)c2cccc(Cl)c2)cc(=O)n(C)c1=O	-1.6	-0.8	-1.7	-4	-4	1%	-0.4	.
CCC(C)(C)C1CCC(=NNc2nc3ccccc3[nH]2)CC1 (stereo not given)	15	0.0	-3.2	-33	51	-1%	-0.7	-55
Cc1ccc2nc3c(cc2c1)CN(Cc1ccco1)C(=NCC1CCCO1)S3 (stereo not given)	.	0.7	-5.5	39	.	12%	-2.5	-4
C=CCNC(=O)/C(C#N)=C/c1c(N2CCCCCC2)nc2ccccn2c1=O	6.2	0.0	-3.1	14	1	-7%	3.8	0
Nc1ccc(C2(c3ccc(N)cc3)OC(=O)c3ccccc32)cc1	1.9	0.0	-2.5	6	-2	.	-1.4	4
CC(=O)c1ccc(NC(=O)CN2CCCCCC2)cc1	-1.6	-0.4	-6.7	-13	.	.	-4.7	-1
COc1ccc(CNCCNC(=O)c2nonc2N)cc1OC	.	0.1	-4.5	6	1	4%&6%	1.6	-14
Cc1nc(C(=O)NCc2ccccc2)sc1C1(C)CC(c2cccc([N+](=O)[O-])c2)=NO1 (stereo not given)	0.7	0.7	-8.9	49	0	.	5.2	7
O=C(Cc1ccccc1)NCCS(=O)c1ccc(Cl)cc1 (stereo not given)	.	-0.1	-3.2	-14	-6	?	0.3	-10
O=C(/C=C/c1ccccc1)Nn1cnc2ccccc2c1=O	.	-0.5	2.8	4	-3	-3%	4.7	-15
CC(=O)Nc1cccc(C(=O)N/N=C/c2ccc(F)cc2)c1	-0.5	-3.4	3.0	-27	-2	.	22*	-14
Cc1csc2nc(COC(=O)CNC(=O)c3ccc(Cl)cc3)cc(=O)n12	-0.1	0.5	3.3	.	0	-11%	.	.
O=C(Nc1ccc(N2CCN(c3ncccc3C(F)(F)F)CC2)nc1)c1cccs1	5.2	1.1	1.1	21	17	-3%	-0.9	2
